Assay outcomes as filed in PubChem BioAssay.
Measles inh = inhibitors of measles virus growth in infected cells; infected Vero cells, GFP fluorescence, 64 h; hits give low values; z-score (no concentration beside the values); actives 0.1% (n = 33,000); AID 745;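 active = z-score under -3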;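 also: score is relative to mean and SD of the compound wells of a plate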
The depositor's hits bear a star.

SMILES | Measles inh
O=C(c1cc2nc(-c3ccc4c(c3)OCO4)cc(C(F)(F)F)n2n1)N1CCN(c2ccccc2Cl)CC1 | 1.1
C#CCN1C(=O)C(O)(CC(=O)c2ccco2)c2cc(Br)ccc21 (stereo not drawn) | -0.16
O=C(CN1CCN(S(=O)(=O)c2ccc(Cl)cc2)CC1)Nc1cc(C(F)(F)F)ccc1Cl | -1.3
O=C1C=C(N2CCOCC2)c2ccccc2C1=O | -1.1
C=CCn1c(SCC(=O)Nc2ccc3c(c2)OCCO3)nc2sc3c(c2c1=O)CCC3 | 1.5
O=c1c2sccc2n(Cc2ccccc2F)c(=O)n1-c1ccccc1 | -0.26
Nc1c(C(=O)NCCc2ccccc2)sc2nc3c(cc12)CCCC3 | 0.43
O=C(CSc1nc2ccc([N+](=O)[O-])cc2[nH]1)Nc1ccc(OC(F)(F)Cl)cc1 | -0.72
Nc1ccc2nc(SCC(=O)NCCc3ccccc3)sc2c1 | 1.6
NC(=O)C(C(=O)OCCCl)C(F)(F)F (stereo not drawn) | 1.5
CC(=O)N1CCc2cc(S(=O)(=O)NCC(=O)O)ccc21 | 0.42
Cc1ccc(CNC(=O)CCNS(=O)(=O)c2cccs2)cc1 | -0.87
NC(=O)c1ccc(NC(=O)CN2CCN(S(=O)(=O)c3ccc(Cl)cc3)CC2)cc1 | -0.05
C=CCNc1nc(-c2ccc(Cl)cc2)nc2ccccc12 | 2.4
O=C(O)CCCNC(=O)c1cc(=O)[nH]c(=O)[nH]1 | 0.27
Cc1ccc2nc(-c3cccnc3)c(NC3CCCC3)n2c1 | 0.66
Sc1oc(-c2ccccc2)cc1C=Nc1ccc(Cl)cc1 | -1
CCS(=O)(=O)N1CCC(C(=O)NC(C)c2ccccc2)CC1 (stereo not drawn) | -0.49
O=C(Nc1ccc(Cl)cc1)c1cccc(S(=O)(=O)N2CCCC2)c1 | -1.9
COc1ccc(Cl)cc1S(=O)(=O)N1CCc2ccccc2C1 | -0.4
COc1cccc(C2C(=O)N(C3CCCCC3)CC(=O)N2Cc2ccco2)c1 (stereo not drawn) | -0.7
CCC(=O)N1CCc2cc(S(=O)(=O)N(CCO)Cc3ccccc3)ccc21 | 0.27
CCOc1ccc(S(=O)(=O)N(CC(=O)Nc2ccc(C)c(C)c2)c2ccccc2)cc1 | -0.58
COc1ccccc1Nc1ncc(C(=O)Nc2ccc(F)cc2)c2ccccc12 | 0.15
COC(=O)c1ccccc1NC(=O)CSc1nc2c(c(=O)n(C)c(=O)n2C)n1C | 0.62
Cc1ccccc1NC(=O)c1scc2c1CCCC2 | -0.19
COc1ccc(C(=O)Nc2ccc3oc(-c4cccc(F)c4)nc3c2)cc1OC | -0.39
O=C(CSc1nc2sc3c(c2c(=O)n1-c1ccccc1)CCC3)c1ccc2c(c1)OCCO2 | 0.68
O=C(Nc1ccc2nn(-c3ccc(Cl)cc3)nc2c1)c1ccc([N+](=O)[O-])cc1Cl | -0.49
COc1ccc(NC(=O)N(Cc2cccnc2)Cc2ccccc2Cl)c(OC)c1 | -0.39
CN1CCN(CC(=O)N2CCc3ccccc32)CC1 | 0.57
O=C1CC(c2cccs2)CC2=C1C(c1ccccc1I)Nc1ccccc1N2 (stereo not drawn) | 0.44
Cc1ccc(C)c(-n2c3nc(=O)[nH]c(=O)c-3cc3cc([N+](=O)[O-])ccc32)c1 | -0.63
CCN(CC)C(=O)CNS(=O)(=O)c1ccccc1N | 0.64
O=c1[nH]c2ccc(Cl)cc2c(=O)n1Cc1ccco1 | -0.28
CC(=O)c1cc2cc3c4c(c2oc1=O)CCCN4CCC3 | 8.8
Cc1c(C)[n+](=O)c2c(n1[O-])CCC2 | 0.69
Fc1cccc(CSc2c[nH]c3ccccc23)c1 | -0.17
CCCCOC(=O)c1ccc(NC(=O)c2cncc(Br)c2)cc1 | -0.26
CCc1ccc2oc(-c3ccc(NC(=O)CC(C)C)cc3)nc2c1 | -0.4
COc1ccc(-c2csc(NC(=O)c3cc(Cl)ccc3[N+](=O)[O-])n2)cc1 | -0.04
Cc1ccc(C(=O)O)cc1NC(=O)c1ccc(Cn2nc(C)c(Cl)c2C)o1 | -0.04
CCOc1cc2c(cc1OCC)C1C(C(=O)N3CCN(c4ccc(OC)cc4)CC3)c3ccccc3C(=O)N1CC2 (stereo not drawn) | 1.1
CCCC12CN3CC(CCC)(CN(C1)C3c1ccccc1C)C2=O (stereo not drawn) | -0.82
Cc1ccc(-c2cc(-c3cc(Cl)ccc3O)on2)cc1 | -0.71
CC1CCCC(NC(=O)c2cc(-c3ccccc3)nc3ccccc23)C1C (stereo not drawn) | 1.7
CCOc1ccc(C2C3=C(CC(C)(C)CC3=O)NC3=C2C(=O)CC(C)(C)C3)cc1Br | -0.84
Cc1ccccc1OCCSc1nc2ccccc2c(=O)[nH]1 | -1.4
Cc1cc(C)cc(N2CN=C3SCC(=O)N3C2)c1 | 2.5
COc1ccc(C2C(C(=O)c3cccs3)=C(O)C(=O)N2CCN(C)C)cc1 (stereo not drawn) | 1.7

Reprinted at random: two entries already listed
SMILES | Measles inh
CCN(CC)C(=O)CNS(=O)(=O)c1ccccc1N | 0.64
COc1ccc(-c2csc(NC(=O)c3cc(Cl)ccc3[N+](=O)[O-])n2)cc1 | -0.04

(listing goes on)
SMILES | Measles inh
O=C(O)c1cc2c3c(c1)C1C=CCC1C(c1ccc(F)cc1)N3CC1CC=CC21 (stereo not drawn) | -0.05
CC(C)(C)NC(=O)c1nn2c(C(F)(F)F)cc(-c3ccccc3)nc2c1Cl | 0.81
CC(=O)N1CCN(c2ccc(NC(=O)c3ccc([N+](=O)[O-])cc3)cc2)CC1 | -2.1
COc1ccc(OC)c(NC(=O)Cn2cnc3ccc(S(=O)(=O)N4CCC(C)CC4)cc3c2=O)c1 | -0.27
CC(C)C(NC(=O)c1ccccc1)C(=O)NC1=NCCS1 (stereo not drawn) | -0.17
CC(C)(C)NCC(O)Cn1c2ccc(I)cc2c2cc(I)ccc21 (stereo not drawn) | -0.52
Cc1cccc2sc(NC(=O)CCC(=O)O)nc12 | 0.87
CNc1nc2[nH]c(=O)cc(O)c2s1 | 0.3
O=C(C1CCC1)N1CCc2cc(S(=O)(=O)NCCN3CCN(c4ccccc4)CC3)ccc21 | 0.63
Cc1ccc2nc(-c3cccs3)c(Nc3ccc4c(c3)OCO4)n2c1 | 0.18
O=[N+]([O-])c1cc2c(cc1C=Nc1ccc(-c3ccc(N=Cc4cc5c(cc4[N+](=O)[O-])OCO5)cc3)cc1)OCO2 | 0.23
COC(=O)c1c(NC(=O)c2ccc(S(=O)(=O)N3CCOCC3)cc2)sc2c1CC(C)(C)NC2(C)C | -0.13
COc1ccccc1NC(=O)c1c(NC(=O)c2cc([N+](=O)[O-])ccc2Cl)sc2c1CCCC2 | 0.96
COc1ccc2c(c1)CCc1c(C(=O)NC(C)c3ccccc3)noc1-2 (stereo not drawn) | -0.71
O=C(Nc1cccc(NC(=O)c2cc([N+](=O)[O-])ccc2Br)c1)c1ccco1 | -1.7
CC(=O)Oc1c(Br)cc(N(C(C)=O)S(=O)(=O)c2ccc(Cl)cc2)c2ccccc12 | -1.4
CCN(CC)S(=O)(=O)c1ccc2c(c1)c(=O)c(C(=O)N1CCN(c3ccccn3)CC1)cn2C | -0.01
CCOC(=O)c1c(C)n(-c2ccccc2)c2ccc(OC(=O)c3ccco3)cc12 | -0.79
COc1cccc2sc(=NC(=O)c3cccc(Cl)c3)n(C)c12 | 0.67
Cc1cc(C)n2nc(CC(=O)NCc3ccc(F)cc3)nc2n1 | -0.4
O=C(Nc1ccc(Br)cc1)c1cc(S(=O)(=O)NCc2ccc(F)cc2)ccc1F | -1.5
CCCNC(=O)c1c(Cl)nc(Cl)c(Cl)c1Cl | -0.12
CCOC(=O)C1=C(C)NC2=C(C(=O)C(C(=O)OC)C(C)C2)C1c1ccc(OC)c(Br)c1 (stereo not drawn) | -0.81
Cc1cccc(C)c1-n1c(N)c(C(=O)NCCc2ccccc2)sc1=S | 1.2
O=C(c1cccc(F)c1)N1CCN(C(c2ccccc2)c2ccccc2)CC1 | -1.8

Among those listed so far, eleven have a thiophene ring, fused or not:
SMILES | Measles inh
C=CCn1c(SCC(=O)Nc2ccc3c(c2)OCCO3)nc2sc3c(c2c1=O)CCC3 | 1.5
O=c1c2sccc2n(Cc2ccccc2F)c(=O)n1-c1ccccc1 | -0.26
Nc1c(C(=O)NCCc2ccccc2)sc2nc3c(cc12)CCCC3 | 0.43
Cc1ccc(CNC(=O)CCNS(=O)(=O)c2cccs2)cc1 | -0.87
Cc1ccccc1NC(=O)c1scc2c1CCCC2 | -0.19
O=C(CSc1nc2sc3c(c2c(=O)n1-c1ccccc1)CCC3)c1ccc2c(c1)OCCO2 | 0.68
O=C1CC(c2cccs2)CC2=C1C(c1ccccc1I)Nc1ccccc1N2 (stereo not drawn) | 0.44
COc1ccc(C2C(C(=O)c3cccs3)=C(O)C(=O)N2CCN(C)C)cc1 (stereo not drawn) | 1.7
Cc1ccc2nc(-c3cccs3)c(Nc3ccc4c(c3)OCO4)n2c1 | 0.18
COC(=O)c1c(NC(=O)c2ccc(S(=O)(=O)N3CCOCC3)cc2)sc2c1CC(C)(C)NC2(C)C | -0.13
COc1ccccc1NC(=O)c1c(NC(=O)c2cc([N+](=O)[O-])ccc2Cl)sc2c1CCCC2 | 0.96

Carrying on.
Compound	Measles inh
Cc1ccc(C)c(NC(=O)c2cc(S(=O)(=O)NCc3ccccc3Cl)ccc2F)c1	-0.16
Cc1cc2c(Nc3cccc(C(F)(F)F)c3)ncnc2s1	-1.3
COc1ccc(C2NC(=O)CS2)cc1OC (stereo not drawn)	0.23
COc1ccc(Cl)cc1NC(=O)CSc1cc(=O)n(C)c2ccccc12	-0.07
Cc1ccc([N+](=O)[O-])cc1NC1OC(CO)C(O)C(O)C1O (stereo not drawn)	2.4
CCOc1ccc(-c2cc(C(=O)NCCCn3ccnc3)c3ccccc3n2)cc1	-1.6
O=C(Nc1ccccc1C(=O)O)c1ncn[nH]1	-0.01
Cc1ccc(OC2=NS(=O)(=O)c3cc([N+](=O)[O-])ccc32)cc1	0.37
O=C(c1cc([N+](=O)[O-])ccc1Cl)N1CCCc2ccccc21	-0.65
COc1ccc2c(c1)CCc1c(C(=O)Nc3cc(OC)c(OC)c(OC)c3)noc1-2	-0.2
CC1CCN(c2nc3c(c(=O)n(C)c(=O)n3C)n2Cc2cccc(F)c2)CC1	0.08
Cc1ccc(CN2CCN(C(=O)CC(C)C)CC2)cc1	-0.47
COc1cc(Nc2nc(-c3ccccc3F)nc3ccccc23)cc(OC)c1	-1.2
CCOc1ccc(S(=O)(=O)N2CCN(c3ccccn3)CC2)c2cccnc12	-0.71
CCCOc1ccc2oc(=O)c3c(c2c1)CCCN3C(=O)CN1CCN(C)CC1	1.3
CCOc1ccc(NC(=O)C2CC(=O)N(c3ccccc3)C2)cc1 (stereo not drawn)	-0.1
O=C(Sc1nc(-c2ccccc2)c(-c2ccccc2)[nH]1)c1cccs1	1.5
Cc1cc2ccccc2c(=O)[nH]1	1.1
CCN1CCN(C(=O)c2cn(CC(C)C)c(=O)c3c2c2ccccc2n3C)CC1	0.05
CCCSc1nnc2c3ccccc3n(CCC)c2n1	-0.41
COC(=O)C(C)Sc1nc2c(c(=O)n1-c1ccc(C)cc1)SCC2 (stereo not drawn)	-0.73
Cc1cccc(N=c2oc3c(C)ncc(CO)c3cc2C(N)=O)c1	-0.13
CC=CCOC(=O)C1=C(C)NC(=O)NC1c1ccc(Cl)cc1 (stereo not drawn)	2
COC(=O)C1=C(C)NC2=C(C(=O)CCC2)C1c1ccc(OC)c(O)c1 (stereo not drawn)	-0.27
Cn1c2c(c(=O)n(C)c1=O)C(c1cccs1)C1C(=O)c3ccccc3C1=N2 (stereo not drawn)	0.32
Cc1cccc(-c2noc(Cc3ccccc3)n2)c1	-1.8
Cc1cc(O)c(C=Nc2cc(Cl)ccc2O)c(C)c1Cl	0.36
CC(C)c1ccc(CN(C(=O)c2cccs2)C2CCS(=O)(=O)C2)cc1 (stereo not drawn)	-0.36
Cc1ccc(NS(=O)(=O)c2ccc3[nH]c(=O)c(=O)[nH]c3c2)cc1	-0.05
CC1Cc2ccccc2N1C(=O)c1cnc2n(c1=O)CCS2 (stereo not drawn)	-0.11
CC(c1ccccc1)N1C(=O)CCC1(C)C(=O)NC1CCCC1 (stereo not drawn)	0.1
Cc1cccc(C(=O)N2CC(=O)Nc3ccc(C)cc3C2c2ccc(F)cc2)c1 (stereo not drawn)	0.9
COc1ccc(N=C2SC(C(=O)Nc3ccc(C(=O)O)cc3)CC(=O)N2Cc2ccc(F)cc2)cc1 (stereo not drawn)	0.16
CCC(=O)Nc1nnc(C(C)(C)C)s1	-0.48
COc1ccc(OCCCCCCc2c(C)n[nH]c2C)cc1	-0.27
COc1ccc(-c2cc(C(F)(F)F)nc(N3CCCCCC3)n2)cc1OC	-0.71
O=C(Oc1ccc(Br)cc1C(=S)N1CCOCC1)c1cccc([N+](=O)[O-])c1	-0.52
O=C1C2C3C=CC(C4CC34)C2C(=O)N1c1cccnc1 (stereo not drawn)	1.9
Cc1ccc(NC(=O)CSc2nccn2-c2cccc(C)c2C)cc1	1.2
COc1ccc2nc3sc(C(=O)N4CCN(c5cccc(C)c5C)CC4)cc3cc2c1	-1.1
COc1cccc(N2C(=O)C3C(C2=O)C2C=CC3C23CC3)c1 (stereo not drawn)	-1.8
O=C(NCCC1=CCCCC1)c1cc(-c2ccncc2)nc2ccccc12	0.39
COc1ccccc1CNC(=O)C1CCN(S(=O)(=O)c2cccc3nonc23)CC1	0.06
O=C(Nc1cccc2ccccc12)c1ccccc1F	1.4
O=C(CCCn1c(=O)[nH]c2ccc(Br)cc2c1=O)N1CCN(c2ccc([N+](=O)[O-])cc2)CC1	-1.4
Cc1ncc(CO)c2cc(C(N)=O)c(=Nc3ccc(Oc4ccccc4)cc3)oc12	-0.09
CCC(C)NC(=O)c1sc2nc(C)nc(N(C)c3ccc(C(C)C)cc3)c2c1C (stereo not drawn)	-0.07
Cc1ccccc1Cn1c(=O)n(CCCC(=O)NCc2ccccc2Cl)c(=O)c2ccccc21	-0.34
COc1ccccc1CNC(=O)c1ccc(N2CC3CC(C2)c2cccc(=O)n2C3)c(NC(=O)c2ccncc2)c1 (stereo not drawn)	0.68
O=C1CCCc2oc3c(Cl)cc(NS(=O)(=O)c4cccs4)cc3c21	1.1

Not all compounds are listed; rates above refer to the full screens.
